# HPGD block: HPGD (human) dehydrogenase inhibition; AID 894; Potency, µM, for the others: at the highest dose activity change, negative = inhibition, hits mostly inhibitors; actives 4.3% (n = 150,000); purified HPGD, NADH fluorescence kinetic, PGE2 substrate; P15428; active = well fitted inhibition curve with a large enough effect (not every such curve was filed as active); inconclusive = small, poorly fitted or top-dose-only effect, or another doubt; inactive = no such curve, though single readings can be large or run the other way;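 note: top concentration of the series not given in the record; plate controls included wells without enzyme; inactives centre near -10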
# Target sequence (P15428 whole entry, looked up): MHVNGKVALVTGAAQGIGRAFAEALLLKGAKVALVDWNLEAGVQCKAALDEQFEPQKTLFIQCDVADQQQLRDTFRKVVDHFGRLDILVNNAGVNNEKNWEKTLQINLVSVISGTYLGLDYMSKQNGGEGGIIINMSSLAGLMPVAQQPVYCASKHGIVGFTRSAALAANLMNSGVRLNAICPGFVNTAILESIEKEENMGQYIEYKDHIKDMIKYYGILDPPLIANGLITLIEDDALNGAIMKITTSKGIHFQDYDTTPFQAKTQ
#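 NADH formation kinetics: reaction with 30 uM PGE2 and 1 mM NAD+ (final), 20 nM enzyme, Tris-HCl pH 8 with Tween 20, after 15 min compound preincubation at room temperature. Fluorescence change, last versus first of five reads.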
# Active calls of the source: *; ? = inconclusive; & = joins results of further samples. % is set by controls: 0 for no effect and ±100 for the full control effect; potency is the fitted concentration of half-maximal effect. Some of the compounds tested, so the mix of outcomes need not match the whole.
HPGD block,Structure
-19%,CC(C)(C)Sc1ccc(N)nc1
2%,COc1cccc(NC(=O)CSc2nnc(CNC(=O)c3ccccc3)n2C)c1
-2%,Cc1ccc(S(=O)(=O)N(C)C)cc1NC(=O)CN1C(=O)NC2(CCCc3ccccc32)C1=O (configuration not stated)
-7%,COCCn1c(C)cc(C(=O)CSc2ncn[nH]2)c1C
-7%,O=C(OCCN1CCCC1=O)c1cc(F)c(F)c(F)c1F
-19%,COc1ccc(-c2csc(-c3cc4ccccc4oc3=N)n2)cc1
-4%,Cc1sc2nc(C(C)C)nc(SCC(=O)N3c4ccccc4CC3C)c2c1C (configuration not stated)
-4%,COc1ccccc1C1(O)CC2CCC(C1)N2S(=O)(=O)c1ccc(C(C)=O)cc1 (configuration not stated)
?,CCN(CC)c1ccc(/C=N/NC(=O)C(O)(c2ccccc2)c2ccccc2)o1
-4%,CCOc1ccccc1CN1CCN(S(=O)(=O)CC)CC1
-12%,CCC(c1nnnn1C1CCCC1)N(Cc1cccs1)Cc1cc2cccc(C)c2[nH]c1=O (configuration not stated)
20µM*,CCOc1cc(/C=C2/C(=O)N(c3ccccc3)N=C2C)ccc1OC(=O)c1cccs1
?,COc1ccc(/C=N/n2c(SC)nnc2-c2ccccc2)c(OC)c1OC
0%,CC(C)=CCC/C(C)=C/Cc1c(O)ccc(C(=O)/C=C/c2ccc(O)cc2)c1O
-7%,CCCCCCSc1nc(O)c(C2OC(=O)c3c2ccc(OC)c3OC)c(=O)n1CC (configuration not stated)
-10%,CCOC(=O)c1cncc(NC(=O)c2ccccc2)c1
-9%,O=C(CCCn1c(SCC(=O)c2ccc(Cl)cc2)nc2ccccc2c1=O)NCc1ccco1
-14%,C[C@H](N)c1nnc(SCC(=O)c2ccc(Cl)cc2)o1
-10%,NC(=O)N/N=C/c1cc(Br)ccc1OC(=O)c1ccccc1
-25%,COc1ccc(CCC(=O)Nc2ccc(-c3noc(-c4ccc(OC)c(OC)c4)n3)cc2)cc1
-10%,CCc1ccc(OC(C)c2nnc(SCC(=O)Nc3ncccc3C)n2C)cc1 (configuration not stated)
-16%,Cc1nn(Cc2ccccc2)c(C)c1NC(=O)c1cc2nc(-c3ccco3)cc(C(F)(F)F)n2n1
-8%,O=C(Cn1nnc(-c2cccc(C(F)(F)F)c2)n1)N1CCCCCC1
-13%,Cc1cc(C(=O)COC(=O)c2csc3c2CCCC3)c(C)n1C
2%,CC(C)NC(=O)CSc1nnc(C2CC2)n1-c1ccccc1

# More records follow:
HPGD block,Structure
-10%,COc1ccc(C(C(=O)NC2CCCCC2)N(C(=O)c2sc(C)nc2C)c2ccccc2)cc1 (configuration not stated)
-27%,Cc1ccc(-c2cc(C(F)F)nc(NCc3cccs3)n2)cc1
1%,Cc1ccc2c(n1)CC(C)(C)CC2=O
-10%,O=S(=O)(NCC(Nc1ccccc1)c1ccccc1)c1ccc(Cl)cc1 (configuration not stated)
?,FC(F)(F)c1ccc(Cl)c(N/N=C/c2ccc(N3CCOCC3)s2)c1
-1%,CC1=CC(=O)C2=C(C)CCC3C(C)C(=O)OC3C12 (configuration not stated)
-4%,C[C@H]1[C@H]2CC[C@H]3C4CC=C5C[C@@H](N(C)C)CC[C@]5(C)C4CC[C@]23CN1C (some centres not stated)
-23%,CCOC(=O)c1ccc(N2C(=O)CC(Nc3ccc(CCO)cc3)C2=O)cc1 (configuration not stated)
-13%,C=C(C)Cn1c(C(C)NC(=O)CCC)nc2ccccc21 (configuration not stated)
-13%,O=C(N/N=C/c1ccc(Sc2nc3ccccc3s2)c([N+](=O)[O-])c1)c1ccccn1
?,O=C(N/N=C/c1ccncc1)c1cccc(NC(=O)c2ccc(Cl)cc2)c1
-9%,N=C1C(c2ccc(Br)cc2)=C(O)C2CCc3ccccc3N12 (configuration not stated)
-3%,Cc1c(OCc2ccc([N+](=O)[O-])cc2)ccc2c3c(c(=O)oc12)CCC3
-8%,CCOc1ccc(/C=N/NC(=O)c2c(-c3ccccc3)noc2C)cc1
?,O=C(CCS(=O)(=O)c1ccccc1)Nc1ccc(-c2nc3ccccc3s2)cc1
-14%,CCCCCNCc1ccc(Br)cc1
-16%,Cc1cccc(C(=O)NNC2=C(C(=O)C(F)(F)F)CCC2)c1O
-8%,CCOC(=O)c1ccc(CSc2nnc(-c3ccncc3)n2N)cc1
-5%,CCCCCC(=O)N/N=C/c1cccs1
-11%,Cn1c(=O)n(CCc2ccccc2)c(=O)c2c1nc1n2CCCN1CCc1ccccc1
-10%,CC(=O)C1CCN(Cc2ccccc2)CC1
-39%,Cc1noc(C)c1C(=O)N1CCC2(CCCN(c3ccccn3)C2)CC1
-12%,COc1ccc(NC(=O)c2ccccc2NC(=O)CSc2ccc(C)cc2)cc1
-5%,CC(C)C(OC(=O)c1cc2c(s1)CCCCC2)C(=O)NC(N)=O (configuration not stated)
-14%,COc1ccccc1Cc1nc(-c2ccc(C)cc2)no1

# Continuation.
HPGD block,Structure
-9%,Cc1ccc(C(=O)Cn2cnc3ccccc3c2=O)cc1
-2%,COc1ccc(CNC(=O)C2CCN(S(=O)(=O)c3ccc(-c4nn[nH]n4)cc3)CC2)cc1
?,c1ccc(-c2nnc(SCc3nnc(-c4cccs4)o3)o2)cc1
?,CCc1ccc(OCC(=O)Nc2ccc(-c3cc4ccccc4oc3=O)c(OC)c2)cc1
-7%,CC(=O)Nc1ccc(S(=O)(=O)NCc2cn3c(C)csc3n2)cc1
-9%,O=C(NCc1ccccc1F)C1CCN(C(=O)NCc2ccccc2)CC1
-11%,COc1ccc(NS(=O)(=O)c2ccc(SC)cc2)c(OC)c1
-22%,S=C(NCCc1ccccc1)Nc1ccc(Cl)cc1Cl
-8%,COc1cc2nc(CSc3nc(-c4ccc(F)cc4)cs3)[nH]c(=O)c2cc1OC
-18%,COc1cc(OC)c(NC(=O)c2ccoc2C)cc1Cl
-3%,CCOC(=O)N1CCN(C(=O)CSc2nnc(Cc3cccn3C)n2CCc2ccccc2)CC1
-3%,Cc1cc(C)c(S(=O)(=O)OC[C@H]2C=CC[C@@H](CCC[C@H]3O[C@H](C(=O)OC(C)C)CC[C@@H]3C)O2)c(C)c1
-14%,Cc1nc2cnc(N3CCOCC3)nc2n(Cc2cccs2)c1=O
-10%,Clc1ccc2nc(CSc3nnc4ccccn34)cn2c1
-8%,CC(C)(C)c1ccc(NS(=O)(=O)c2ccc(N)cc2)cc1
-7%,COc1ccc(CN2CCN(S(=O)(=O)c3ccccc3)CC2)cc1Br
-2%,O=[N+]([O-])c1cc(C(F)(F)F)ccc1NCCc1c[nH]c2ccc(O)cc12
-8%,COC(=O)CN(c1nc(C)cc(OC)n1)S(=O)(=O)c1ccc(C)cc1
-5%,Nc1cc(=O)[nH]c(SCc2nc3ccccc3n2Cc2ccccc2)n1
-30%,Cc1nc2ncnn2c(C)c1CCC(=O)N1CCN(c2ccccn2)CC1
-9%,Cc1nn(CC#N)c(=O)n1-c1ccc(F)cc1
-7%,OC(CNCc1ccco1)Cn1c2ccc(Br)cc2c2cc(Br)ccc21 (configuration not stated)
-24%,C[C@]12CCC3c4ccc(OS(=O)(=O)O)cc4CCC3C1CCC2=O (some centres not stated)
-5%,CC1Cc2ccccc2N1Cc1nc2scc(-c3cccs3)c2c(=O)[nH]1 (configuration not stated)
-23%,COc1cc2c(C(=O)NC3CCCCCC3)cn(C)c(=O)c2cc1OC

# A second format for some results above.
canonical_smiles	HPGD block
COc1ccc(CN2CCN(S(=O)(=O)c3ccccc3)CC2)cc1Br	-7%
O=[N+]([O-])c1cc(C(F)(F)F)ccc1NCCc1c[nH]c2ccc(O)cc12	-2%

# Ordered by molecular weight (falling): some entries from above
HPGD block,Structure
-3%,Cc1cc(C)c(S(=O)(=O)OC[C@H]2C=CC[C@@H](CCC[C@H]3O[C@H](C(=O)OC(C)C)CC[C@@H]3C)O2)c(C)c1
?,CCc1ccc(OCC(=O)Nc2ccc(-c3cc4ccccc4oc3=O)c(OC)c2)cc1
-7%,COc1ccc(CN2CCN(S(=O)(=O)c3ccccc3)CC2)cc1Br
-2%,O=[N+]([O-])c1cc(C(F)(F)F)ccc1NCCc1c[nH]c2ccc(O)cc12
-10%,Clc1ccc2nc(CSc3nnc4ccccn34)cn2c1
-18%,COc1cc(OC)c(NC(=O)c2ccoc2C)cc1Cl
-9%,Cc1nn(CC#N)c(=O)n1-c1ccc(F)cc1

# (listing goes on)
HPGD block,Structure
-12%,Cc1cccc(-n2c(C)n[nH]c2=S)c1
-1%,O=C(CSc1ncn[nH]1)NCCCc1ccccc1
6%,Clc1cccc(Cl)c1COc1ccncc1
?,Cc1cccc(Nc2nnc(-c3ccc(C(=O)N4C[C@H]5C[C@H](C4)c4cccc(=O)n4C5)cc3)c3ccccc23)c1
-14%,COc1ccc(CNC(=O)c2ccc(S(=O)(=O)N3CCCC3)cc2)cc1OC
-9%,CC1CC(C)CN(C(=O)COC(=O)CCc2nc3ccccc3c(=O)[nH]2)C1 (configuration not stated)
-14%,CC1CCN(c2oc(Cc3cccc4ccccc34)nc2C#N)CC1
11µM*,COc1ccccc1Cn1nnc2c(=O)[nH]c(C3CCN(C(=O)c4ccc(F)cc4)CC3)nc21
-11%,Cc1ccc(C(C)C)cc1C(=O)CC1(O)C(=O)N(C)c2ccccc21 (configuration not stated)
-29%,CCn1c(=N)c(S(=O)(=O)c2ccc(F)cc2)cc2c(=O)n3ccccc3nc21
-7%,COc1ccc(N(CN2C(=O)C3CC=CCC3C2=O)C(=O)c2ccco2)cc1 (configuration not stated)
5%,Cc1cccc(N(CC(=O)NCc2ccc3c(c2)OCO3)C(=O)CCC(=O)Nc2ccccn2)c1
-11%,CCOc1cc(N2CCCC2)ccc1[N+](=O)[O-]
-10%,CCc1ccc(C(=O)COC(=O)CNC(=O)c2ccc(N3C(=O)c4ccccc4C3=O)cc2)cc1
-2%,O=C(CN1CCN(Cc2ccccc2)C1=O)NCCCN1CCOCC1
4%,COc1ccc(C2NC(=O)NC(C)=C2C(=O)Nc2cccc(C)c2C)cc1 (configuration not stated)
-6%&-8%,NS(=O)(=O)c1cc(C2(O)NC(=O)c3ccccc32)ccc1Cl (configuration not stated)
-5%,COc1ccccc1NC(=S)N(Cc1ccccc1)Cc1ccccn1
-23%,COc1cc(O)c2c(O)c3c(c4c2c1[C@@]1(C4)C(C)=CCCC1(C)C)[C@H](O)[C@@]1(O)CC(=O)C(C(N)=O)=C(O)[C@]1(O)C3=O
?,Cn1cc(Cl)c(C(=O)N/N=C/c2ccc(OS(=O)(=O)c3ccccc3)cc2)n1
-7%,CC1CCN(S(=O)(=O)c2ccc(-c3nnc(SCc4cccnc4)o3)cc2)CC1
-14%,CCOC(=O)c1c(-c2cccc([N+](=O)[O-])c2)csc1N
-12%,CCOc1ccc2nc(NC(=O)CSc3nc4c(c(=O)n(C)c(=O)n4C)n3C(C)C)sc2c1
-3%,O=C(CCN1C(=O)/C(=C/C=C/c2ccccc2)SC1=S)Nc1nc2ccccc2s1
-30%,Cc1ccc(S(=O)(=O)N2CC=C(C(=O)NCc3ccc(F)cc3)CC2)cc1

# By substructure, those above containing a tert-butyl group (two)
HPGD block,Structure
-19%,CC(C)(C)Sc1ccc(N)nc1
-8%,CC(C)(C)c1ccc(NS(=O)(=O)c2ccc(N)cc2)cc1

# Further compounds.
HPGD block,Structure
-7%,Cc1cc(NS(=O)(=O)c2ccc(NC(=O)NC(C)(C(F)(F)F)C(F)(F)F)cc2)no1
?,CCN(CC)c1ccc(C(=O)OCc2cc(=O)oc3cc(O)ccc23)cc1
-8%,CCc1nnc(NC(=O)CSc2nnc(Cc3cccn3C)n2CCOC)s1
-4%,CC1CCCCC1NC(=O)C1CCN(S(=O)(=O)N2CCC3(CC2)OCCO3)CC1 (configuration not stated)
-22%,CCOC(=O)c1c(-c2ccccc2)csc1NC(=O)COc1ccc2c(C)cc(=O)oc2c1
-17%,CC(=O)C1=C(O)C(=O)N(C2CCCCC2)C1c1ccccc1 (configuration not stated)
-12%,CN(C)CCN1C(=O)C(O)=C(C(=O)c2cc3ccccc3o2)C1c1ccc(N(C)C)cc1 (configuration not stated)
-7%,Cc1ccccc1NC(=S)N(CCN(C)C)C(C)c1ccco1 (configuration not stated)
-16%,CCOC(=S)SCC(=O)N1CCc2cc(OC)c(OC)cc2C1C1C(=O)CC(C)(C)CC1=O (configuration not stated)
-6%,CCOc1ccc(C=O)cc1CN1CCCCC1
-13%,CN(CC(=O)NCCc1ccccc1)S(=O)(=O)c1cccs1
3%,CC(C)CNc1nc2c(c(=O)n(C)c(=O)n2C)n1Cc1cccc(Br)c1
-8%,C/C(Cl)=C\Cn1c(NCCCn2ccnc2)nc2c1c(=O)n(C)c(=O)n2C
2.2µM*,Oc1ccc(-c2cn3c(n2)SCC3)cc1O
-19%,C(=N\n1c2ccccc2c2ccccc21)/c1ccccc1
-5%,CC1CCN(CCCCOc2ccccc2[N+](=O)[O-])CC1
-3%,COc1cc(OC)c(OC)cc1CN1CCCC(C(=O)N2CCCCC2)C1 (configuration not stated)
?,Cc1ccc(Cn2ccc(NC(=O)c3cc4nc(-c5ccco5)cc(C(F)(F)F)n4n3)n2)cc1
?,O=C(N/N=C/c1ccc2c(c1)OCO2)c1cc(-c2ccc(F)cc2)nc2ccccc12
?,CCOC(=O)c1sc(NC(=O)c2ccccc2F)c(C(N)=O)c1C
